Source: PubChem BioAssay (several laboratories)
LANA-H2A inh = blockers of LANA interaction with H2A/H2B – biochemical, FP readout, HTS, primary screen; AID 2629, 2010; Protein LANA1 (Human herpesvirus 8 type P (isolate GK18)), Q9QR71; inhibition, % (no concentration beside the values); 0.6% of 320,000 active; cell-free LANA-H2A/H2B peptide, fluorescence polarization; in the data active = inhibition mostly above about 10%, no sharp cut-off; inactive = mostly below about 6.7%;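 also: stock transfer was 7.5 nL into about 10 µL; 0% = median of vehicle wells and 100% = median of positive control wells; one replicate is shown; the record names a cut of 25% in any replicate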
AF4-AF9 inh = inhibitors of AF4 peptide binding to AF9, primary screen, biochemical, AlphaScreen, biotin-AF4 peptide, FLAG-AF9, single point | Protein AF-9 (Homo sapiens), P42568 | inhibition, % at 10 µM | 0.47% of 350,000 active | AID 651704, 2012;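 active = every replicate reaching a set inhibition limit, whatever the replicate mean, cut at about 25% in these data; inconclusive = mean inhibition reaches that limit but some replicates miss it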;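 also: 0% = plate neutral control median and 100% = total signal loss; the record names both 10 and 1 µM as test concentration; the first replicate is given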
Target sequence (P42568 whole entry, looked up): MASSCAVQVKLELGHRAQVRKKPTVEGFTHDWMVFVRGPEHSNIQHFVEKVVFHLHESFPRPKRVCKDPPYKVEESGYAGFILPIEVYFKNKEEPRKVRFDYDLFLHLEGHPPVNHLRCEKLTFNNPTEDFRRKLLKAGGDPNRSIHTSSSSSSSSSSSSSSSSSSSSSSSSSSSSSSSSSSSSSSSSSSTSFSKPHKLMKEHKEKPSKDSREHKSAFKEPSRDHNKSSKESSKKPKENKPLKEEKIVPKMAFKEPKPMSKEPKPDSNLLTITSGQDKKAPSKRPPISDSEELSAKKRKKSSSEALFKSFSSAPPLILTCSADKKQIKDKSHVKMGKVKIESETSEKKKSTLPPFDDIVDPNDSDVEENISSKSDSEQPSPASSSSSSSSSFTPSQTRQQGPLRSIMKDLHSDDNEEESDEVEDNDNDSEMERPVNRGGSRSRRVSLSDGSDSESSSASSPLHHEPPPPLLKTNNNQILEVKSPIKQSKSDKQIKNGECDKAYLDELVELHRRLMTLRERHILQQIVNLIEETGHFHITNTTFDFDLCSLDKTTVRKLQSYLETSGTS
Calb FLC = C. albicans growth inhibition with fluconazole, primary screen, CaCi-2 strain, Alamar Blue fluorescence; AID 1979, 2009; C. albicans CaCi-2 (fluconazole-resistant clinical isolate) + fluconazole, 48 h; growth inhibition, % (no concentration beside the values); 0.57% of 300,000 active;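 active = most replicates above 75%; inconclusive = exactly half above 75%; inactive = most below 75%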;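 also: all wells also contain fluconazole at 8 µg/ml as a sub-toxic cotreatment; 0% = median of DMSO wells and 100% = median of geldanamycin control wells; wells of about 8 µL received 7.5 nL stock; the first replicate is given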
T cruzi inh = inhibitors of intracellular T. cruzi growth, primary screen, luminescence, NIH3T3 host cells | T. cruzi beta-gal in NIH3T3, 90 h | inhibition, % (no concentration beside the values) | 1.4% of 300,000 active;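 active = mean inhibition across valid replicates above about 55%, limit read from the data; inconclusive = mean below that limit but half or more replicates reach it; inactive = mean below it, under half of replicates reach it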;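 also: signal also drops with host cell toxicity which is not excluded here; 0% = plate median of DMSO wells and 100% = zero luminescence signal; higher percent means less beta-gal luminescence so fewer parasites; stock transfer was 50 nL into about 50 µL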
A1 inh = caspase 3/7 activation in MEF A1-2A-BIM cells, primary screen, A1 inhibitor project, cell-based, luminescence, HTS. caspase activation, % (concentration not given with the values). AID 2462, 2010. Caspase-Glo 3/7 luminescence, 3 h; percent of clofoctol response, vehicle zero. 0.066% of 330,000 active;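 active = over half of replicate activation scores above 10%, or exactly half above 10 with the replicate mean above 10; inconclusive = replicate mean below 10 yet half the replicates above 10; inactive = over half of replicates below 10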;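 also: wells of about 30 µL received 50 nL stock; many hits fall short of the cut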
Vif A3G = inhibitors of Vif binding to APOBEC3G peptide, primary screen, biochemical, TR-FRET, GST-Vif 1-94, biotin-A3G peptide, dose response retest (AID 1117319). TR-FRET GST-Vif / biotin-A3G peptide binding; higher % means a stronger effect; test concentration not given here; strong numbers were not always called active. one-dose inhibition, %; IC50 in µM for titrated hits. 0.57% of 260,000 active;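 active = above the screen mean plus three standard deviations and confirmed in dose response; inconclusive = results disagree or hit not tested in dose response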;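 also: Vif residues 1-94 fused to GST binding biotinylated APOBEC3G peptide 110-148; 0% = full assay without inhibitor and 100% = GST in place of GST-Vif; retest series ran down from 100 µM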
Beta apoptosis = inhibitors of cytokine-induced beta cell apoptosis, primary screen, luminescence | INS-1E cytokine-induced death, ATP luminescence, 48 h; percent of positive-control rescue, neutral wells zero | protection from apoptosis, % (test concentration not listed) | 0.8% of 300,000 active;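 active = all replicates at 75% or more, or half of them and the mean; inconclusive = half reach 75% but not the mean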;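 also: 0% = cytokine-treated negative control wells and 100% = positive control rescue; higher means more ATP so stronger rescue from cytokine killing; wells of about 40 µL received 100 nL stock; the first replicate is given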
RanGTP-Imp inh = inhibitors of RanGTP-importin-beta interaction, primary screen, biochemical, FRET, CFP-Ran, YFP-importin-beta, homogeneous; 1.1% of 300,000 active; cell-free CFP-Ran/YFP-importin-beta FRET ratio; Ran GTPase (GTP-bound) - importin-beta complex; inhibition, % (test concentration not listed); AID 2216, 2009;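 active = most replicates above 15%; inconclusive = exactly half above 15%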;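 also: 0% = DMSO wells and 100% = Ran loaded with GDP instead of GTP; wells of about 40 µL received 100 nL stock; the first replicate is given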
* hit, by the source's call; & = joins results of further samples.

How did CC(=O)c1ccc(NC(=S)N2CCN(S(=O)(=O)c3ccc(F)cc3)CC2)cc1 do in these assays?
LANA-H2A inh: 1.2; AF4-AF9 inh: -1.1; Calb FLC: 3; T cruzi inh: 8; A1 inh: -1.2; Beta apoptosis: -4; RanGTP-Imp inh: -3.8

What do the screens show for `CCC1CCCCN1c1ccc([N+](=O)[O-])cc1/C=N/NC(=O)Cn1c2ccccc2c(=O)c2ccccc21` (stereo not given)?
LANA-H2A inh: -3.1; Calb FLC: -4; T cruzi inh: 8; A1 inh: 1.2; Vif A3G: -1%; Beta apoptosis: 8; RanGTP-Imp inh: 12

Results for O=C(Cc1ccccc1)NNC(=O)c1ccc(NC(=O)c2ccccc2)cc1 ?
LANA-H2A inh: 2.1; AF4-AF9 inh: -0.6; Calb FLC: 0; T cruzi inh: -3; A1 inh: -0.5; Beta apoptosis: 0; RanGTP-Imp inh: -1.8

What do the screens show for `Cc1ccc(OCCCSc2n[nH]c(N)n2)cc1`?
LANA-H2A inh: -2.1; AF4-AF9 inh: -0.2; Calb FLC: -11; T cruzi inh: -16; A1 inh: -0.7; Vif A3G: 10%; Beta apoptosis: -25; RanGTP-Imp inh: 1.5

Results for O=C(c1ccco1)N1CCN(C(=O)c2ccc(CS(=O)c3cccc(Cl)c3)o2)CC1 (stereo not given) ?
LANA-H2A inh: -2.6; AF4-AF9 inh: 0.5; Calb FLC: 2; T cruzi inh: -5; A1 inh: 0.6; Beta apoptosis: -9; RanGTP-Imp inh: -1.0

What do the screens show for `CCCc1cc(NC(=O)COC(=O)c2ccc(O)cc2O)n(-c2ccccc2)n1`?
LANA-H2A inh: 1.7; AF4-AF9 inh: -20; A1 inh: -1.5; Beta apoptosis: 1

What do the screens show for `N#CCCN(C(=O)COC(=O)CCN=C1NS(=O)(=O)c2ccccc21)c1ccc(F)cc1`?
LANA-H2A inh: -2.3; AF4-AF9 inh: -1.6; T cruzi inh: -5; A1 inh: -0.3; Vif A3G: -5%; Beta apoptosis: -4; RanGTP-Imp inh: -1.9

What do the screens show for `CC1CC(=O)N(CC(=O)NC2CCCCC2)c2ccccc2S1` (stereo not given)?
LANA-H2A inh: -5.4; AF4-AF9 inh: 0.2; Calb FLC: -10; T cruzi inh: 2; A1 inh: 0.0; Beta apoptosis: 3; RanGTP-Imp inh: 1.1

Results for Cc1cc(C)nc(SCc2nnc(SCC(=O)Nc3cc(C(F)(F)F)ccc3Cl)o2)n1 ?
LANA-H2A inh: -2.6; Calb FLC: -2; T cruzi inh: 7; A1 inh: 0.4; Vif A3G: 3%&2%; Beta apoptosis: 0; RanGTP-Imp inh: 5.1

How did Cc1cc(F)ccc1NS(=O)(=O)c1c(C)nc2scc(C)n2c1=O do in these assays?
LANA-H2A inh: 0.1; AF4-AF9 inh: 2.5; Calb FLC: 0; T cruzi inh: 4; A1 inh: 0.4; Beta apoptosis: 0; RanGTP-Imp inh: 3.7

How did O=C(N/N=C/c1c[nH]c2ccc(Br)cc12)C1CC1 do in these assays?
LANA-H2A inh: -5.5; AF4-AF9 inh: 6.2; Calb FLC: 4; T cruzi inh: -7; A1 inh: 0.6; Vif A3G: -5%; Beta apoptosis: -4; RanGTP-Imp inh: 0.5

What do the screens show for `Cc1nnc(SCC(=O)N2CCN(S(=O)(=O)c3ccc(Cl)cc3)CC2)[nH]c1=O`?
LANA-H2A inh: 2.0; Calb FLC: -5; T cruzi inh: -1; A1 inh: -2.1; Vif A3G: 27%; Beta apoptosis: 1; RanGTP-Imp inh: 1.6

What do the screens show for `O=C(c1cccc2ccccc12)n1nnc2ccccc21`?
LANA-H2A inh: 7.9; Calb FLC: -2; T cruzi inh: -28; A1 inh: 0.6; Beta apoptosis: -3; RanGTP-Imp inh: -6.0

Results for O=[N+]([O-])c1ccc(N2CCSCC2)cc1O ?
LANA-H2A inh: 0.4; AF4-AF9 inh: 5.7; Calb FLC: 8; T cruzi inh: -10; A1 inh: 0.1; Vif A3G: -2%; Beta apoptosis: 4; RanGTP-Imp inh: -2.3

How did CC1Cc2ccccc2N1C(=O)c1ccc2c(c1)nnn2C (stereo not given) do in these assays?
LANA-H2A inh: -0.4; Calb FLC: 23; T cruzi inh: -16; A1 inh: 3.4; Vif A3G: 6%; Beta apoptosis: -5; RanGTP-Imp inh: 7.9

How did CCOc1ccccc1NC(=O)c1ccccc1-c1nc(-c2ccccc2)no1 do in these assays?
LANA-H2A inh: 4.2; Calb FLC: 19; T cruzi inh: -4; A1 inh: 0.9; Vif A3G: 4%; Beta apoptosis: 7; RanGTP-Imp inh: -2.6

Results for CC(=O)c1cccc(NC(=O)COC(=O)c2cccc(N3C(=O)c4ccccc4C3=O)c2)c1 ?
LANA-H2A inh: -3.3; AF4-AF9 inh: -2.4; Calb FLC: -19; T cruzi inh: 5; A1 inh: 0.9; Vif A3G: 1%; Beta apoptosis: -9; RanGTP-Imp inh: 2.3

Results for COC(=O)c1ccc(COC(=O)c2ccc(SC)cc2OC)cc1 ?
LANA-H2A inh: -2.3; AF4-AF9 inh: -3.2; Calb FLC: -23; T cruzi inh: 3; A1 inh: 0.0; Beta apoptosis: -6; RanGTP-Imp inh: -1.5

What do the screens show for `Cc1ccc(-c2nc(-c3cccnc3)no2)c(C)c1`?
LANA-H2A inh: -0.2; Calb FLC: 95*; T cruzi inh: 3; A1 inh: -2.4; Vif A3G: -4%; Beta apoptosis: -1; RanGTP-Imp inh: 2.5

How did COc1ccccc1NC(=O)c1ccc2c(c1)nnn2C do in these assays?
LANA-H2A inh: 0.2; AF4-AF9 inh: -2.1; Calb FLC: 11; T cruzi inh: 1; A1 inh: -0.5; Vif A3G: 0%; Beta apoptosis: -2; RanGTP-Imp inh: 3.6

How did CN(C)c1ccc(CNC(=O)c2cc(S(=O)(=O)N3CCCC3)cn2C)cc1 do in these assays?
LANA-H2A inh: -0.1; AF4-AF9 inh: 4.5; Calb FLC: 1; T cruzi inh: -13; A1 inh: 1.5; Beta apoptosis: -1; RanGTP-Imp inh: 3.2

How did COc1cc(/C=C/C(=O)c2ccc(C)cc2)ccc1OCC#N do in these assays?
LANA-H2A inh: -4.4; AF4-AF9 inh: 11; Calb FLC: -3; T cruzi inh: 1; A1 inh: 0.1; Vif A3G: -3%; Beta apoptosis: -20; RanGTP-Imp inh: 2.0

What do the screens show for `COc1ccc(NC(=S)N(CCc2ccc(OC)c(OC)c2)Cc2ccccn2)cc1`?
LANA-H2A inh: 0.3; AF4-AF9 inh: 0.1; Calb FLC: -15; T cruzi inh: -12; A1 inh: 0.0; Vif A3G: 25%; Beta apoptosis: -4; RanGTP-Imp inh: -3.0

Results for Cc1cc(=O)oc2ccc(OCC(=O)N3CCc4ccccc43)cc12 ?
LANA-H2A inh: 6.4; Calb FLC: 3; T cruzi inh: 15; A1 inh: 0.5; Vif A3G: -7%; Beta apoptosis: 4; RanGTP-Imp inh: inconclusive

How did CCOc1ccc(NC(=S)Nc2cc(C)[nH]n2)cc1 do in these assays?
LANA-H2A inh: -0.7; AF4-AF9 inh: -3.3; Calb FLC: 5; T cruzi inh: -1; A1 inh: 0.4; Vif A3G: 22%; Beta apoptosis: 1; RanGTP-Imp inh: 2.1

Results for COc1ccc2nc(N=NC3=C(O)CC(C)(C)CC3=O)sc2c1 ?
LANA-H2A inh: 5.7; AF4-AF9 inh: 5.8; Calb FLC: 19; T cruzi inh: -13; A1 inh: -0.1; Vif A3G: -9%; Beta apoptosis: 2; RanGTP-Imp inh: -5.4

Results for C=COC(=O)c1sc2nc(C)cc(C)c2c1N ?
LANA-H2A inh: -2.0; AF4-AF9 inh: -5.8; Calb FLC: 3; T cruzi inh: 49; A1 inh: 1.2; Vif A3G: -18%; Beta apoptosis: 6; RanGTP-Imp inh: -1.4

How did Cc1cc(C)cc(OC(=O)CS(=O)c2ccc(C(F)(F)F)cc2[N+](=O)[O-])c1 (stereo not given) do in these assays?
LANA-H2A inh: 1.3; Calb FLC: 3; T cruzi inh: -13; A1 inh: 0.4; Vif A3G: 16%; Beta apoptosis: -26; RanGTP-Imp inh: -3.3

What do the screens show for `COc1ccc(NC(=O)N2CCN(c3ccc([N+](=O)[O-])cc3)CC2)cc1OC`?
LANA-H2A inh: 0.8; AF4-AF9 inh: 12; Calb FLC: -3; T cruzi inh: 10; A1 inh: 0.0; Beta apoptosis: -2; RanGTP-Imp inh: -4.1

How did CCOC(=O)C1CCN(S(=O)(=O)c2ccc(-c3nc4ccccc4s3)s2)CC1 do in these assays?
LANA-H2A inh: 6.0; Calb FLC: 1; T cruzi inh: 0; A1 inh: -5.5; Vif A3G: 2%; Beta apoptosis: 3; RanGTP-Imp inh: -2.7

How did COc1cc(CNCc2ccc(OC)cc2OC)cc(OC)c1 do in these assays?
LANA-H2A inh: -0.1; AF4-AF9 inh: 2.4; Calb FLC: -9; T cruzi inh: -2; A1 inh: -0.3; Vif A3G: -8%; Beta apoptosis: 5; RanGTP-Imp inh: -1.0

Results for Cc1ccc(C(=O)N/C(=C\c2ccccc2)C(=O)NCCN2CCOCC2)cc1 ?
LANA-H2A inh: 1.1; AF4-AF9 inh: 2.8; Calb FLC: -18; T cruzi inh: -8; A1 inh: 0.9; Beta apoptosis: -3; RanGTP-Imp inh: 2.5

Results for COc1ccc(C2CC(c3ccccc3)Nc3ncnn32)cc1 (stereo not given) ?
LANA-H2A inh: 0.9; AF4-AF9 inh: 1.0; Calb FLC: -6; T cruzi inh: 2; A1 inh: 0.2; Vif A3G: 3%; Beta apoptosis: -6; RanGTP-Imp inh: 0.6

How did CN(C)S(=O)(=O)c1ccc(NC(=O)N2CCN(c3cccc(C(F)(F)F)c3)CC2)cc1 do in these assays?
LANA-H2A inh: -3.4; Calb FLC: 0; T cruzi inh: 55*; A1 inh: -0.2; Vif A3G: 74%; Beta apoptosis: 42; RanGTP-Imp inh: inconclusive

How did O=C(CSc1ccc(Cl)cc1)Nc1ncccn1 do in these assays?
LANA-H2A inh: 0.1; AF4-AF9 inh: 5.1; Calb FLC: 1; T cruzi inh: 17; A1 inh: 1.7; Vif A3G: 23%; Beta apoptosis: -21; RanGTP-Imp inh: 0.2

Results for Cc1ccc(-n2nc(-c3cccnc3)cc2C(=O)N2CCOCC2)c(C)c1 ?
LANA-H2A inh: 4.6; Calb FLC: -2; T cruzi inh: 6; A1 inh: -1.0; Vif A3G: 10%; Beta apoptosis: 0; RanGTP-Imp inh: 1.5

What do the screens show for `CCN1CCN(C(=O)Nc2cc(Cl)ccc2OC)CC1`?
LANA-H2A inh: -4.0; AF4-AF9 inh: -2.5; Calb FLC: 6; T cruzi inh: 6; A1 inh: -0.3; Vif A3G: -4%; Beta apoptosis: 1; RanGTP-Imp inh: 1.2
